KCNQ2 pot – potentiators of rat KCNQ2 potassium channel; Potassium voltage-gated channel subfamily KQT member 2 (Rattus norvegicus), O88943; CHO-K1 KCNQ2, FluxOR thallium flux fluorescence; hits give high values; B-score at 10 µM; actives 0.54% (n = 310,000);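 active means fluorescence ratio B-score at least 3 SD of library B-scores, with initial fluorescence B-score within 3 SD, cut at about 5.3 in these data; same plate scores as AID 2156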;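 further: B-score of peak minus minimum over baseline fluorescence ratio after K+ and Tl+ stimulus; positive B-score means potentiation of KCNQ2 with more thallium influx and brighter signal; only the inactives scoring about 0 or higher are listed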
Target sequence (O88943 whole entry, looked up): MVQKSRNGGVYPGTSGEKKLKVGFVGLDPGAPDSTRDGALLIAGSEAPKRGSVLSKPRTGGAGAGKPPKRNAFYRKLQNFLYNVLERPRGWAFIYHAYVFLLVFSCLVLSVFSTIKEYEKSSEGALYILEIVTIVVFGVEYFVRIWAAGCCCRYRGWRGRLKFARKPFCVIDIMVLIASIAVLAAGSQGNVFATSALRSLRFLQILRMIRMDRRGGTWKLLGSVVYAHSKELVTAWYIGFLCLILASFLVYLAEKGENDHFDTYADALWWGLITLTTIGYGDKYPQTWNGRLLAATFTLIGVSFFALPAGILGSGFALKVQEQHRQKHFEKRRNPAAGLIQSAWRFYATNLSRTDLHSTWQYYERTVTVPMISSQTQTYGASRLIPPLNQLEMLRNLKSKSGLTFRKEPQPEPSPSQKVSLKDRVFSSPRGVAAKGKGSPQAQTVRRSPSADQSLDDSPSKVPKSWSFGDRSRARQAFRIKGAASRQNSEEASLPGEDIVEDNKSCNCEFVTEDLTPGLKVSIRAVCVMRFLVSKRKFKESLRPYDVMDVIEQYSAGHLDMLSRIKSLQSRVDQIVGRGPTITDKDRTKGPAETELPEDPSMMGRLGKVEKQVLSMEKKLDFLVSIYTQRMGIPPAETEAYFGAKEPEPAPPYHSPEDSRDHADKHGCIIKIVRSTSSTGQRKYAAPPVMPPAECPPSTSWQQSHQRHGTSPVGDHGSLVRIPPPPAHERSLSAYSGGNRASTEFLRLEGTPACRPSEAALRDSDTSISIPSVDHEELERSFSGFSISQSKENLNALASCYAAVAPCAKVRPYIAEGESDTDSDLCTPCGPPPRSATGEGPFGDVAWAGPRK
KCNQ2 pot baseline – second read-out of KCNQ2 pot, no call of its own (marks repeat the call); B-score; compound at 10 µM; measured here: initial fluorescence intensity artifact check;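 brightness before thallium and not channel activity; 0 = typical well and far values either way flag optical interference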
Active calls of the source: *.

Sample of the layout, 5 compounds:
SMILES | KCNQ2 pot | KCNQ2 pot baseline
O=C1CC2(CCN(C(=O)c3c(F)cccc3Cl)CC2)Oc2ccccc21 | 0.22 | 0.46
COC(=O)c1c(O)ccc(Oc2ccccc2)c1C(=O)OC | 1.4 | -1.4
CCOC(=O)N1CCN(c2c(NC3CCN(Cc4ccccc4)CC3)c(=O)c2=O)CC1 | 2.5 | -0.34
Fc1ccc(CNC(=S)Nc2ccccc2Cl)cc1 | 2.2 | -0.49
COc1ccc(OC)c(NC(=O)CCCCCn2nnc3ccccc3c2=O)c1 | 1.5 | -1.7

This part in full, previewed entries included:
SMILES | KCNQ2 pot | KCNQ2 pot baseline
O=C1CC2(CCN(C(=O)c3c(F)cccc3Cl)CC2)Oc2ccccc21 | 0.22 | 0.46
COC(=O)c1c(O)ccc(Oc2ccccc2)c1C(=O)OC | 1.4 | -1.4
CCOC(=O)N1CCN(c2c(NC3CCN(Cc4ccccc4)CC3)c(=O)c2=O)CC1 | 2.5 | -0.34
Fc1ccc(CNC(=S)Nc2ccccc2Cl)cc1 | 2.2 | -0.49
COc1ccc(OC)c(NC(=O)CCCCCn2nnc3ccccc3c2=O)c1 | 1.5 | -1.7
O=C1NC[C@H](c2ccccc2)N(CCc2cc(C(F)(F)F)cc(C(F)(F)F)c2)C1=O | 0.81 | -1.2
COc1ccc(CNC(=O)NCCc2c[nH]c3ccccc23)cc1 | 0.06 | -0.31
COc1ccc(N2C(=NC(=O)C3CC3)SC3CS(=O)(=O)CC32)cc1Cl (centres undefined) | 0.21 | 0.01
COc1ccc(NC(=O)C2CCCO2)cc1Cl (centres undefined) | 1.9 | -0.09
CCOC(=O)c1[nH]c2ccc(OCC)cc2c1NC(=O)CN1CCN(c2ccccc2)CC1 | 0.84 | 0.78
COc1cc(/C=N/Nc2nc3ccccc3[nH]2)cc(Br)c1OCC(=O)N(C)C | 0.05 | 0.1
CCOc1ccc(CNC(=O)CCSCc2ccccc2F)cc1OC | 1 | 0.28
CCOC(=O)c1sc(C)c2c1NC(c1ccc(N(C)C)cc1)NC2=O (centres undefined) | 0.23 | -0.47
CC(C)c1ccc(NC2CCCN(C(=O)CCN3CCCCO3)C2)cc1 (centres undefined) | 0.96 | -2.7
O=C(CSc1nc2c(c(=O)n1-c1ccccc1)SCC2)NCC1CCCO1 (centres undefined) | 0.99 | 1.8
O=C(OC1CCOC1=O)c1ccc(NS(=O)(=O)c2cccs2)cc1 (centres undefined) | 1.3 | -1.3
COc1ccc(CNC(=O)COC(=O)CN2C(=O)C(C)Oc3ccc(C)cc32)cc1 (centres undefined) | 1.6 | -0.24
CCOC(=O)c1ccc(C(=O)NNC(=O)C2CC=CCC2)cc1 (centres undefined) | 1.2 | -0.2
CC1=NN(C(=O)c2cccc(Cn3nc(C)c([N+](=O)[O-])c3C)c2)C(O)(C(F)(F)F)C1 (centres undefined) | 3.8 | 0.46
COc1ccc(CCNC(=O)CCC(=O)c2cccs2)cc1OC | 0.07 | 1.2
CC(C)(C)N(CC#CCC(O)(c1ccccc1)c1ccccc1)CCO | 0.44 | 0.83
O=C(CC1CCCC1)Nc1nc2ccccc2[nH]1 | 0.48 | 1.8
Cc1ccc(C(=O)CSc2nc3cccnc3n2C)cc1 | 0.72 | -0.1
CC(C)(C)S(=O)(=O)c1ccsc1C(=O)O | 1.1 | 1.9
CCOC(=O)C1C(=O)NC(c2ccccc2)=NC1c1ccc(Br)cc1 (centres undefined) | 0.4 | 0.29
COc1ccc(OCC(=O)NCCCN2CCOCC2)cc1 | 1.1 | 1.5
Cc1nc2ccccn2c1/C(O)=C1\C(=O)C(=O)N(CCN(C)C)C1c1ccco1 (centres undefined) | 0.96 | 1.8
CC(=O)N1c2ccc(S(=O)(=O)N3CCCC(C(=O)Nc4cccc(F)c4)C3)cc2CC1C (centres undefined) | 0.28 | -1.2
CCSc1ccc2nnc(-c3cccc(F)c3)n2n1 | 1.9 | -0.14
CCn1nc(C)c(NC(=O)CC23CC4CC(CC(C4)C2)C3)c1C | 21* | -1.2*

An excerpt of these results, with each value named:
CCOC(=O)c1ccc(C(=O)NNC(=O)C2CC=CCC2)cc1 (centres undefined)
  KCNQ2 pot: 1.2	KCNQ2 pot baseline: -0.2
CC1=NN(C(=O)c2cccc(Cn3nc(C)c([N+](=O)[O-])c3C)c2)C(O)(C(F)(F)F)C1 (centres undefined)
  KCNQ2 pot: 3.8	KCNQ2 pot baseline: 0.46

Going on with the list.
SMILES | KCNQ2 pot | KCNQ2 pot baseline
O=C1N(CN2CCN(c3cccc(Cl)c3)CC2)c2ccccc2C12OCCCO2 | 1.5 | 0.32
COc1ccc(NS(=O)(=O)c2cc(S(C)(=O)=O)ccc2C)cc1 | 1 | -0.98
CCNc1nc(SCC(=O)Nc2ccc(Cl)c(Cl)c2)nc(N2CCOCC2)n1 | 3 | 0.98
Cc1nc(SCc2cccnc2)[nH]c(=O)c1C | 0.23 | 1.1
COCCNC(=O)C1CC(c2ccccc2C(F)(F)F)=NO1 (centres undefined) | 0.51 | -1.3
O=C(Cc1ccccc1)NNC1CC(=O)N(c2ccc(Cl)cc2)C1=O (centres undefined) | 1.3 | -1.4
O=C(c1cccc(C(F)(F)F)c1)N1CCCCCC1 | 1 | 1.3
c1ccc(OCCSc2nnnn2-c2ccccc2)cc1 | 0.18 | -3.3
COc1ccc(C2CC(c3c(-c4ccccc4)c4cc(Cl)ccc4[nH]c3=O)=NN2S(C)(=O)=O)cc1 (centres undefined) | 0.16 | -1.2
OCc1cn(-c2ccccc2)nc1-c1ccc(-c2nn(-c3ccccc3)cc2CO)cc1 | 0.53 | 1.3
CN(C)C(=O)c1ccc(NC(=O)COC(=O)c2cc(S(=O)(=O)N(C)C)ccc2N2CCCC2)cc1 | 0.43 | 1.9
O=[N+]([O-])c1ccc(CSc2ccc(-c3ccccn3)nn2)cc1 | 0.01 | -0.62
CCn1cc(C(=O)O)c(=O)c2cc(S(=O)(=O)N(C)C)ccc21 | 0.57 | -0.77
CCS(=O)(=O)N1CCC(C(=O)NCCC2=CCCCC2)CC1 | 0.49 | -1.8
CC(=O)N1CC=CC1(CC(C)C)C(=O)NCCc1c[nH]c2ccccc12 (centres undefined) | 0.88 | 1

In another format: results already given.
> COc1ccc(NC(=O)C2CCCO2)cc1Cl (centres undefined)
  KCNQ2 pot: 1.9; KCNQ2 pot baseline: -0.09
> CCOC(=O)c1[nH]c2ccc(OCC)cc2c1NC(=O)CN1CCN(c2ccccc2)CC1
  KCNQ2 pot: 0.84; KCNQ2 pot baseline: 0.78
> COc1cc(/C=N/Nc2nc3ccccc3[nH]2)cc(Br)c1OCC(=O)N(C)C
  KCNQ2 pot: 0.05; KCNQ2 pot baseline: 0.1

Further entries.
SMILES | KCNQ2 pot | KCNQ2 pot baseline
O=C(C1CCN(c2ncnc3c2sc2cccc(F)c23)CC1)N1CCOCC1 | 3.4 | 0.16
Cc1ccc(SCCCCN2C(=O)NC(C)(C)C2=O)cc1 | 1.2 | -0.41
O=C(CSc1nc(-c2ccc(F)cc2)cc(C(F)(F)F)n1)NCc1cccs1 | 0.14 | -0.11
O=C(COC(=O)c1ccc2ccccc2c1O)NCC(F)(F)F | 0.15 | -0.83
O=C(Nc1nc2ccccc2n1CCN1CCOCC1)c1ccc(Cn2cc([N+](=O)[O-])cn2)o1 | 0.12 | 0.65
COc1ccc([N+](=O)[O-])cc1NC(=O)C1CCCNC1=O (centres undefined) | 0.8 | -0.52
Cc1[nH]n(-c2ccc([N+](=O)[O-])cc2)c(=O)c1C=NCCN1CCN(C(=O)c2ccc(Br)cc2)CC1 | 0.13 | -1.3
CC(NC(=O)COC(=O)CCc1nc(=O)c2ccccc2n1C)c1ccccc1 (centres undefined) | 0.89 | -0.87
Nc1ncnc(N(c2ccccc2)C2CCCCC2)c1[N+](=O)[O-] | 1.7 | -0.96
Cn1c(CCNC(=O)C2CCCCC2)nc2cc([N+](=O)[O-])ccc21 | 0.59 | 0.77
COc1ccc(Nc2sc(C(=O)c3ccc(Cl)cc3)c(N)c2C(=O)Nc2ccccc2OC)cc1 | 0.01 | 0.08
Cn1c2ccccc2c(=O)c2c(=O)n(-c3ccc(F)cc3)c(-c3cccs3)nc21 | 0.01 | -2.4
Cc1ccccc1C(=O)N=c1sccn1C | 1.3 | 0.25
COc1ccc(NC(=O)CCS(=O)(=O)c2ccc3c(c2)CCCN3C(C)=O)cc1 | 0.37 | 1.6
Cc1cc(C(=O)Cn2c(CO)nc3ccccc32)c(C)n1C | 0.26 | 0.1
CCc1ccc(NC(=S)N(CCN(C)C)C(C)c2ccncc2)cc1 (centres undefined) | 0.21 | -2.1
CSCCC(NC(=O)c1ccco1)c1nc2ccccc2[nH]1 (centres undefined) | 0.26 | 0.14
N/C(=N\OC(=O)c1ccccc1[N+](=O)[O-])c1cccnc1 | 0.66 | -0.51
CC(C)c1ccc(S(=O)(=O)N2CCN(C(=O)C3CCN(C(=O)c4ccc(F)cc4)CC3)CC2)cc1 | 0.14 | -0.38
Cc1cccc(C(=O)NCCCNC(=O)c2ccco2)c1 | 0.22 | 0.61
COc1ccc(/C=N/NC(=O)CC(=O)NCCc2ccccc2)cc1OC | 1.9 | 0.42
CCOc1ncccc1C(=O)Nc1nnc(C2CC2)s1 | 1.2 | -1.3
Cc1ccc(C(=O)Nc2nnc(CC(=O)N/N=C/c3ccc(O)c(O)c3)s2)cc1 | 1.2 | -1.1
Cn1c(CCCOc2ccc(Cl)cc2Cl)nnc1SCC(=O)Nc1nccs1 | 0.19 | -0.12
COC(=O)c1cc2ccsc2n1Cc1ccccc1F | 0.21 | -0.21
Cc1occc1C(=O)Nc1sccc1C(N)=O | 0.06 | 0.61
Cc1cc2cccc(C)c2nc1SCC(=O)NNC(=O)c1ccco1 | 0.31 | 0.5
Nc1c(C(=O)NCc2cccs2)nnn1CC(=O)Nc1cccc(Cl)c1 | 1.2 | -2.6
COc1ccc(-c2nc3ccccc3c(=O)o2)cc1OC | 0.19 | -1.6
CSc1ccccc1NC(=S)Nc1ccccc1C(F)(F)F | 0.06 | 0.1
N#Cc1ccc(OCC(=O)NCC2(N3CCCCC3)CCCCC2)cc1 | 0.04 | 3.4
COC(=O)C1C2C=CC3(CN(C(C)C)C(=O)C13)O2 (centres undefined) | 0.63 | -2.2
O=C(O)CCCN1C(=O)c2ccc(C(=O)c3cccc([N+](=O)[O-])c3)cc2C1=O | 0.54 | -0.05
COc1ccc(/C=N/NC(=O)c2cccc([N+](=O)[O-])c2)cc1OC(=O)c1ccc(C)cc1 | 0.45 | 0.38
NC(N)=N/N=C/c1ccc(OS(=O)(=O)c2ccccc2)cc1 | 0.56 | 0.87
O=[N+]([O-])c1nn(-c2ccc3c(c2)OCCO3)n(O)c1=NC1CCCCC1 | 0.86 | 0
O=C(N1CCCC1)N1CCN(S(=O)(=O)c2ccccc2)CC1 | 0.73 | 0.22
CC1CCc2[nH]c3ccc(C(=O)O)cc3c2C1 (centres undefined) | 0.02 | -1.5
COc1ccc(C2CC(=O)c3sc(N)nc3C2)cc1 (centres undefined) | 0.11 | -4.1
O=C(CN(c1ccccc1)S(=O)(=O)c1ccccc1)N/N=C/c1ccco1 | 0.88 | -1
CCC1=NN2C(=N)/C(=C\c3cccn3-c3cccc(Cl)c3)C(=O)N=C2S1 | 0.08 | -1.6
O=C(Nc1cnn(C23CC4CC(CC(C4)C2)C3)c1)c1cc(-c2ccccc2)on1 | 0.83 | 0.22
CCOC(=O)c1cnn(-c2ccc(F)cc2)c1N | 0.59 | 0.39
COc1ccc(NC(=O)c2cccc(NC(=O)C(C)C)c2)c([N+](=O)[O-])c1 | 0.02 | -0.83
Cc1cccc(Cc2ncc(C(F)(F)F)cc2Cl)c1 | 1.5 | -0.41
Clc1cccc(Cl)c1COc1ccccc1CNn1cnnc1 | 0.19 | 2.7
CCOCCCNS(=O)(=O)c1ccc(NC(=O)C2CC(=O)N(c3ccc(C)cc3)C2)cc1 (centres undefined) | 0.05 | 0.2
CCCn1c(=N)c(S(=O)(=O)c2ccccc2)cc2c(=O)n3ccccc3nc21 | 1.3 | -1.1
CCOC(=O)c1c(CN2CCCCC2)n(C)c2ccc(OC)c(S(=O)(=O)c3ccccc3)c12 | 0.31 | -0.63
CN(C(=O)C1CCOC1)c1nnc(-c2ccccn2)s1 (centres undefined) | 0.97 | 1.6
CCCN1CCN(c2nc3c([nH]2)c(=N)ncn3CC(O)CO)CC1 (centres undefined) | 0.79 | 1.2
COc1ccc(S(=O)(=O)n2cnc3ccccc32)cc1 | 0.35 | -1.1
CCOC(=O)C1CCN(Cc2ccc(OCc3ccccc3)cc2)CC1 | 0.29 | -0.51
COc1cccc(C(=O)Nc2ccc3c(C)cc(=O)oc3c2)c1 | 0.22 | -0.21
COCc1ccc(C(=O)N2CCCC(Nc3ccc4c(c3)OCCO4)C2)o1 (centres undefined) | 0.67 | 1.2
O=C(c1ccc2c(c1)OCO2)N1CCCN(C(=O)c2ccc3c(c2)OCO3)CC1 | 0.16 | 0.96
Cn1cc(S(=O)(=O)N2CCN(c3ccccc3F)CC2)c(=O)n(C)c1=O | 0.58 | 0.2
COc1ccc(NC(=O)CCS(=O)(=O)c2ccc(Cl)cc2)cc1 | 1.7 | -0.85
Cn1nc(C(=O)N2CCc3ccccc3C2)c2ccccc2c1=O | 2.6 | -0.68
O=c1cc(-c2ccc([N+](=O)[O-])cc2)nc2cc(-c3ccc(F)cc3)[nH]n12 | 0.7 | 1.4
O=C(c1cccc(NS(=O)(=O)c2cccc([N+](=O)[O-])c2)c1)N1CCOCC1 | 1.2 | -0.84
CC(C)NC(=O)NC1C2CC3CC(C2)CC1C3 (centres undefined) | 0.24 | 0.01
O=C(O)c1ccccc1C(=O)Nc1ccc(S(=O)(=O)N2CCCC2)cc1 | 1.9 | -0.23

Whole records, quoted from the list. Screens in order: KCNQ2 pot	KCNQ2 pot baseline
`CCOCCCNS(=O)(=O)c1ccc(NC(=O)C2CC(=O)N(c3ccc(C)cc3)C2)cc1` (centres undefined) as listed: 0.05	0.2
`CN(C(=O)C1CCOC1)c1nnc(-c2ccccn2)s1` (centres undefined) as listed: 0.97	1.6

Not all compounds are listed, so the mix of outcomes need not match the whole.
